Assay outcomes as filed in PubChem BioAssay.
Lassa entry inh: Lassa virus entry inhibition | Lassa virus pseudotype entry inhibition, cell reporter; control for the full effect not named in the record | Potency, µM (top dose mostly 37.9 µM), inactives show at the highest dose activity change, negative = inhibition, usual class: inhibitors | 1.2% of 300,000 active | AID 540256; active means well fitted inhibition curve with a large enough effect; inconclusive means small, poorly fitted or top-dose-only effect, or effect the other way; inactive means flat fitted curve, though single readings scatter; tested in HEK293 cells; also: % is scaled to controls: 0 for no effect and ±100 for the full control effect; nearly all actives have a fitted effect of over 50% in size; luciferase read-out
NS1 function inh: blocks influenza NS1 protein function; Potency, µM (titrated, usually from 46.1 µM), without a hit: at the top dose activity, positive = more growth; 0.4% of 270,000 active; S. cerevisiae slowed by influenza A NS1, growth recovery by OD600; also: actives are rising curves; nearly all actives have a fitted effect of over 50% in size
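OD600 was taken as the measure of yeast growth restored by compound in an NS1-expressing S. cerevisiae strain. Cells had been washed out of glucose medium and diluted 1:100 into galactose -URA medium, pH 6.0.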
Marburg entry inh: blocks Marburg virus binding to or entry into cells | Marburg virus pseudotyped entry inhibition, cell reporter; control for the full effect not named in the record; about a third of the inactives were read at about 46 µM | 1.8% of 300,000 active | Potency, µM (titrated, usually from 37.8 µM), for inactives: at the top dose activity change, negative = inhibition, usual class: inhibitors | AID 540276; active = well fitted inhibition curve with a large enough effect; inconclusive = small, poorly fitted or top-dose-only effect, or effect the other way; inactive = flat fitted curve, though single readings scatter; tested in HEK293 cells; about a fifth of its hits are not listed in these tables; also: % is scaled to controls: 0 for no effect and ±100 for the full control effect; luciferase read-out
Cruzain inh noDet: inhibitors of Trypanosoma cruzi cruzain without detergent; purified cruzain, Z-FR-AMC fluorescence, no detergent; Potency, µM, for inactives: max response, negative = inhibition, most hits filed as inhibitors; P25779; AID 1476; 2.3% of 200,000 active; active = well fitted curve in the direction sought with a large enough effect; inconclusive = small, poorly fitted or top-dose-only effect, or another doubt; inactive = no such curve, though single readings can be large; an effect the other way counts as inactive or inconclusive;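 also: plate controls were enzyme without inhibitor for no effect and buffer without enzyme for full effect; nearly all actives have a fitted effect of over 40% in size; top concentration of the series not given in the record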
Target sequence (P25779 123-467 limits assumed): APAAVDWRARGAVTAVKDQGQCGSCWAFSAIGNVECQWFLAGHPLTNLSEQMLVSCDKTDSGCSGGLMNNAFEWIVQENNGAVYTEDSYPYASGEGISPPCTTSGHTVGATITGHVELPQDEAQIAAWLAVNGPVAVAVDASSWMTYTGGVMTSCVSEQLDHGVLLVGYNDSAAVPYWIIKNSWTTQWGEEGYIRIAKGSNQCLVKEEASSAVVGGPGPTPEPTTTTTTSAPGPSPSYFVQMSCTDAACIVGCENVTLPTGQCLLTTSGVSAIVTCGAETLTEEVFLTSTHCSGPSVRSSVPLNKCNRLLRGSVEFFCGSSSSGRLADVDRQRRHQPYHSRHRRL
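Detergent-free condition (0.00005% Triton X-100) in acetate buffer pH 5.5 with DTT. 1.5 nM enzyme and compound were pre-mixed 15 min, then 2 uM Z-FR-AMC substrate added; reaction progress from fluorescence change between first and third reads (60 s).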
SARS PLP yeast: blocks SARS-CoV papain-like protease in a yeast assay. AID 485353. Potency, µM (series often up to 32.9 µM), without a hit: at the highest dose activity, positive = growth rescue. 0.19% of 330,000 active. S. cerevisiae expressing SARS-CoV PLpro, growth rescue; control for the full effect not named in the record; also: 0% is about no effect; nearly all actives have a fitted effect of over 55% in size; growth read by luminescence after 48 h
StopGo reporter: lowers the luciferase signal of an FMDV 2A StopGo reporter. human cells with a luciferase reporter of 2A StopGo recoding; control for the full effect not named in the record. Potency, µM (titrated, usually from 57.9 µM), without a hit: at the top dose signal change, negative = less light. 1.2% of 410,000 active; active = well fitted falling curve with a large enough effect; inconclusive = small, poorly fitted or top-dose-only effect; inactive = no such curve, though single readings can be large or run the other way; tested in HEK293T cells; also: % is scaled to controls: 0 for no effect and ±100 for the full control effect; nearly all actives have a fitted effect of over 45% in size; luciferase light after 4 h
Cruzain Triton: blocks cruzain activity in presence of Triton detergent. P25779. purified cruzain, Z-FR-AMC fluorescence, 0.01% Triton. Potency, µM, inactives show max response, negative = inhibition, most hits filed as inhibitors. 0.43% of 200,000 active. AID 1478; active = well fitted curve in the direction sought with a large enough effect; inconclusive = small, poorly fitted or top-dose-only effect, or another doubt; inactive = no such curve, though single readings can be large; an effect the other way counts as inactive or inconclusive;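 also: plate controls were neutral wells for no effect and buffer without enzyme for full effect; nearly all actives have a fitted effect of over 40% in size; top concentration of the series not given in the record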
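15 min RT preincubation of 1.5 nM cruzain with compound, then 2 uM Z-FR-AMC added; kinetic AMC fluorescence, 60 s delta. Triton X-100 0.01%, pH 5.5.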
RE007 growth inh: less growth of the S. pombe RE007 Vpr strain. 0.21% of 360,000 active. Potency, µM (highest dose often 92.2 µM), for inactives: top-dose activity change, negative = less growth. S. pombe RE007 Vpr strain, BacTiter-Glo ATP luminescence, 24 h; control for the full effect not named in the record; active = well fitted falling curve with a large enough effect; inconclusive = small, poorly fitted or top-dose-only effect; inactive = no such curve, though single readings can be large or run the other way;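 also: % is scaled to controls: 0 for no effect and ±100 for the full control effect; nearly all actives have a fitted effect of over 50% in size; the assay follows cell death caused by Vpr and the record does not say whether a fall means rescue or toxicity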
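Fission yeast RE007 carrying one integrated HIV-1 vpr copy, seeded at OD 0.01 in PMG+AL medium with 23 nL pinned compound. Grown 24 h at 30 degrees; viability read by BacTiter-Glo luminescence after 5 min.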
* hit, by the source's call; ? = inconclusive; . = not tested or not shown; & = joins results of further samples; [ ] = another dose, or the depositor's remark. Unless noted, calls follow the shape of the dose curve; as a rule, active means well fitted rising curve with a large enough effect; inconclusive means small, poorly fitted or top-dose-only effect; inactive means no such curve, though single readings can be large or run the other way. Potency is read from the fitted curve at half-maximal effect.

Under each structure: Marburg entry inh	Lassa entry inh	Cruzain Triton	StopGo reporter	Cruzain inh noDet	NS1 function inh	SARS PLP yeast	RE007 growth inh
O=C(C[n+]1cccc2ccccc21)c1ccc([N+](=O)[O-])cc1
  ?	?	.	-17%	.	.	0%	2%
CCCNC(=O)c1onc(CSc2nc3ccccc3[nH]2)c1C(=O)NCCC
  .	.	.	-3%	.	-3%	1%	3%
Cc1ccc(CNC(=O)CN(C(=O)C2(C)CC(=O)N=C3C=CC=CN32)c2cc(C)ccc2C)cc1 (stereo not drawn)
  -6%[46.1 µM]	-12%	.	1%	.	6%	-5%	-8%
CC1(C)Cc2c(cnn2-c2ccc(F)cc2)C(NC(=O)C2CCC2)C1 (stereo not drawn)
  ?	-12%	.	-12%	.	8%	1%	23%
CCCc1nc2oc3cc(OC)ccc3c(=O)c2c(=O)n1CCc1ccccc1
  -16%	-1%	.	-14%	.	0%	1%	5%
CC1CCN(CCCNC(=O)c2ccc(N3CCCC3=O)cc2)CC1
  .	.	.	1%	.	-3%	0%	-10%
O=C(Cn1nnc2sc3c(c2c1=O)CCCC3)Nc1ccc(F)c(Cl)c1
  -2%[46.1 µM]	15%[46.1 µM]	-6.7%	4%	?	.	.	.
CC(C)C1CC(CCN)(c2ccccc2)CCO1 (stereo not drawn)
  .	.	.	-12%	.	4%	1%	-18%
CC(C)CC1(C)NC(=O)N(CC(=O)NC(=O)Nc2ccc3c(c2)OCCO3)C1=O (stereo not drawn)
  0%	4%	3.6%	0%	-22%	7%	-1%	7%
O=C(O)C1C2C=CC(O2)C1C(=O)NCc1ccccc1Br (stereo not drawn)
  -14%	3%	1.0%	4%	5%	-144%	-28%	?
COc1ccc2[nH]c(C(=O)NCCN3CCCCC3)cc2c1
  0%[46.1 µM]	5%	.	22%	.	7%	-4%	-16%
COc1cc(NC(=O)c2cccc(Cl)c2Cl)ccc1NC(=O)c1cc2ccccc2o1
  .	-5%[46.1 µM]	-2.6%	0%	-6%	.	.	.
COC(=O)c1ccccc1OS(=O)(=O)N(C)C
  -19%[46.1 µM]	-3%[46.1 µM]	.	-10%	.	4%	0%	8%
CCCCCCCSc1nsc(N)n1
  ?	-9%	-7.2%	22%	-6%	-40%	-26%	-19%
COc1cccc(N2CC(C(=O)NC3CCCCC3)CC2=O)c1 (stereo not drawn)
  0%	?	1.1%	-15%	0%	-11%	-7%	7%
CCC(=O)Nc1c(C(=O)N2CCN(c3ccccn3)CC2)cnn1-c1ccc(Cl)cc1
  -2%	0%	0.0%	-20%	-3%	-5%	2%	-12%
COc1ccc(O)c(/C=N/NC(=O)CCC(=O)Nc2ccc(F)cc2)c1
  0%	-1%	.	7%	.	16%	2%	5%
CC(CCc1ccccc1)NC(=O)c1ccc(Br)cc1 (stereo not drawn)
  .	14%	.	0%	.	-12%	4%	8%
CCC(C)n1c(=O)c2sccc2n2c(CCCC(=O)N3CCC(C(N)=O)CC3)nnc12 (stereo not drawn)
  .	.	.	-6%	.	14%	-10%	15%
CCc1c(C)sc(NC(=O)c2cnn3cccnc23)c1C#N
  3%	22%	0.5%	5%	-16%	-1%	4%	1%
CC(C)CNC(=O)c1nc(-c2ccccc2)n(-c2ccccc2)n1
  -11%	-7%	0.4%	-6%	2%	1%	-2%	9%
O=C(NC1CCCC1)c1ccc2c(c1)N(Cc1ccccc1F)C(=O)c1ccccc1S2
  .	-15%[46.1 µM]	-1.0%	-13%	?	.	.	.
COc1cccc(CN2CCC(C(=O)N3CCN(c4ccccc4F)CC3)CC2)c1
  -9%	2%	-0.2%	-13%	1%	3%	7%	8%
COc1ccccc1OC1OC2COC(c3ccco3)OC2C(O)C1NC(C)=O (stereo not drawn)
  ?	20%	0.4%	-20%	4%	-13%	22%	9%
Cc1ccc(S(=O)(=O)N2CCCC(C(=O)NCCCN3CCCCC3C)C2)cc1 (stereo not drawn)
  -14%	18%	3.2%	-16%	0%	-3%	3%	-12%
CCNC(=O)NC(=O)COC(=O)c1cccc(S(=O)(=O)N2CC3(C)CC2CC(C)(C)C3)c1 (stereo not drawn)
  8%[46.1 µM]	13%	.	2%	.	.	-2%	3%
Cc1ccc(C(=O)COc2ccc3ccc(=O)oc3c2)cc1
  -1%[46.1 µM]	-2%	.	6%	.	2%	-3%	-16%
COc1ccc(NC(=O)c2ccc(NC(=O)CCS(=O)(=O)c3cccs3)cc2)cc1Cl
  ?	-5%[46.1 µM]	-6.9%	-13%	-20%	.	.	.
O=C(NCCCn1ccnc1)C(=O)NCC1OCCN1S(=O)(=O)c1cc(F)ccc1F (stereo not drawn)
  13%	6%	.	-14%	.	11%	1%	3%
Cc1ccc(S(=O)(=O)NCCC(=O)N2CCCCCC2)cc1
  -11%	15%	.	14%	.	.	-1%	23%
O=C(NCc1cccs1)Nc1ccc(Cl)cc1
  -3%	?	-1.9%	41%[activator]	-19%	-5%	3%	16%
NC(=O)CC(NC(=O)Cc1cccc2ccccc12)c1ccc(NC2CCCCC2)c([N+](=O)[O-])c1 (stereo not drawn)
  .	.	.	-7%	.	0%	-4%	-5%
COc1ccc(S(=O)(=O)N2CCN(C(=O)Nc3ccccc3OC)CC2)cc1
  -10%[46.1 µM]	28%[46.1 µM]	.	-8%	.	-5%	-3%	-2%
N#Cc1nn(-c2ccccc2)nc1N1CCCCC1
  ?	-14%	-20%	2%	14%	0%	-1%	-18%
O=C(NCCN1CCCCCC1)c1ccc(CS(=O)(=O)c2ccc(Br)cc2)o1
  -38%	15%	-15%	-21%	-11%	3%	-11%	-9%
CCOc1ccc(CCNC(=O)C2CCN(S(=O)(=O)N3CCC(C)CC3)CC2)cc1OCC
  15%&-6%	1%&12%	-1.5%	-21%	0%	6%	2%	0%
Nn1c(SCC(=O)NC(=O)NCc2ccco2)nnc1-c1ccc(OC(F)F)cc1
  11%	7%	-1.5%	-22%	-9%	-1%	-10%	19%
CCc1ccc(NC(=O)CSc2nc(-c3ccc(C)cc3)nc3c2Cc2c(CO)cnc(C)c2O3)cc1
  .	-1%[46.1 µM]	-2.3%	6%	1%	.	-6%	.
COCC(=O)N1CCC(Oc2ccc(C(=O)NCc3cc(C)n(C)n3)cc2)CC1
  6%	5%	.	-16%	.	5%	-5%	3%
Cc1ccc(OCc2cc(=O)n3cc(C)sc3n2)c(NC(=O)c2ccco2)c1
  .	-1%[46.1 µM]	0.8%	-19%	3%	.	.	.
COc1ccc2c(C(=O)CN3CC(C)OC(C)C3)c[nH]c2c1 (stereo not drawn)
  14%	26%	-2.3%	69%[activator]	-9%	5%	1%	0%
O=C(Cn1nc(-c2ccc(Cl)cc2)c2ccccc2c1=O)NCC1CCCO1 (stereo not drawn)
  -6%	4%	-1.4%	0%	13%	-1%	.	-14%
Cc1ccc(CNC(=O)C(C)n2c(=O)cc(C(F)(F)F)c3c(C)nn(C)c32)cc1 (stereo not drawn)
  .	-10%[46.1 µM]	0.5%	-29%	4%	.	.	.
O=C(COC(=O)/C=C/c1ccc(F)cc1)NCc1ccco1
  20%[46.1 µM]	-7%[46.1 µM]	.	1%	.	.	0%	3%
Cc1ccc(Cn2c(=O)n(-c3cc(C)cc(C)c3)c(=O)c3oc4ccccc4c32)cc1
  .	9%[46.1 µM]	-3.8%	-23%	-16%	.	.	.
O=C(CCc1nnc(CCCc2ccccc2)o1)NC(C1CC1)C1CC1
  ?	-19%[46.1 µM]	.	8%	.	-7%	0%	0%
O=C(CCl)Nc1c2c(nn1-c1ccccc1)CSC2
  ?	?	.	?	.	-28%	-3%	0%
Cc1ccc(S(=O)(=O)c2nc(S(C)(=O)=O)sc2N2CCN(C)CC2)cc1
  .	.	.	-2%	.	3%	-5%	5%
O=C(c1ccc(F)cc1)N1CCC(C(=O)N2CCN(S(=O)(=O)c3cccc(Cl)c3)CC2)CC1
  ?	-4%	.	?	.	.	0%	-28%
CC(=O)Nc1ccc(S(=O)(=O)N2CCN(Cc3cccs3)CC2)cc1
  -31%	?	.	-7%	.	0%	0%	-10%
Cn1ccnc1C(=O)c1cccc([N+](=O)[O-])c1
  ?	-4%	-1.8%	-5%	-4%	2%	18%	-19%
COc1ccc(C2/C=C\CN(S(=O)(=O)c3ccc(C)cc3)CC(=O)N2Cc2cccc(F)c2)cc1 (stereo not drawn)
  1%	.	-0.8%	15%	-29%	.	10%	4%
CSc1cccc(Nc2nc3c(S(=O)(=O)c4ccccc4)nnn3c3ccc(Cl)cc23)c1
  2%[46.1 µM]	.	0.5%	11%	-5%	.	.	.
O=C(NC1CCCCCCC1)c1ccc(Br)cc1
  ?	?	.	0%	.	.	.	12%
CCOc1ccccc1NC(=O)COC(=O)CSc1ccc(Cl)cc1
  33%	15%	-8.0%	-7%	12%	-8%	-18%	-27%
COc1cccc(NC2=C(Cl)C(=O)OC2OC(=O)c2ccco2)c1 (stereo not drawn)
  ?	-5%	.	-28%	.	.	1%	21%
CCOc1ccc(NC(=O)Cn2cc(C(=O)c3ccc(F)cc3)c(=O)c3cc4c(cc32)OCCO4)cc1
  -5%[46.1 µM]	-13%[46.1 µM]	-1.2%	5%	6%	.	.	.
COc1ccccc1NC(=O)CSc1ccc2nnc(-c3ccc(C)cc3)n2n1
  .	.	.	-14%	.	9%	5%	6%
NC(=O)CC(NC(=O)c1cccc(Br)c1)c1ccc(N2CCC(N3CCCCC3)CC2)c([N+](=O)[O-])c1 (stereo not drawn)
  .	.	.	-6%	.	-22%	-2%	1%
CCOC(=O)c1ccc(Nc2ncnc3c2cnn3-c2cccc(Cl)c2)cc1
  .	?	0.7%	18%	9%	.	.	.
COc1ccc2c(C)c(CCC(=O)NCc3ccc(Cl)cc3)c(=O)oc2c1C
  9%[46.1 µM]	1%[46.1 µM]	-2.8%	-6%	-11%	.	.	.
CCN(CC)S(=O)(=O)c1ccc2c(c1)NC(=O)C1CCCN21 (stereo not drawn)
  .	.	.	-17%	.	7%	5%	-8%
Cc1cc(C)c(NC(=O)Nc2ccccc2C)c(Cl)c1
  .	.	.	-2%	.	-2%	0%	-9%
